Screening data from PubChem BioAssay.
miR-21 FLuc: raises the signal of a miR-21 reporter. HeLa miR-21 FLuc reporter, luciferase, 48 h. Potency, µM (titrated, usually from 38.3 µM), for the others: at the top dose reporter change, positive = more light. AID 2288. 340,000 tested, under 10 active; active = well fitted rising curve with a large enough effect; inconclusive = small, poorly fitted or top-dose-only effect; inactive = no such curve, though single readings can be large or run the other way;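 also: % of control where 0% means no effect; miR-21 action dims this reporter so a rising signal means less miR-21 action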
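HeLa miR-21-FLuc reporter line, endogenous miR-21; 2000 cells/well in DMEM/10% FBS; compound titration up to ~40uM final, 48 h, 37 degree Celsius; luciferase detection reagent, 15 min lysis, CCD luminescence.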
Rango complex inh: prevents formation of the Rango-importin beta complex. Potency, µM (top dose mostly 92.2 µM), for inactives: at the top dose inhibition of complex formation. Rango CFP/YFP FRET sensor + importin beta, 45 min. Q14974. actives 0.031% (n = 340,000). AID 540263; active = rising FRET ratio curve, often small or poorly fitted; inconclusive = mostly compound fluorescence or quenching in the first reads; inactive = flat curves in all reads;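 also: potency is read from the fitted curve at half-maximal effect; 0% = DMSO wells and 100% = buffer wells lacking importin beta; nearly all actives have a fitted effect of over 15% in size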
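FRET biosensor Rango (snurportin 1 IBB between N-terminal EYFP and C-terminal Cerulean), 50 nM in PBS/1 mM DTT/0.02% Tween-20/0.1% BSA, preincubated 5 min RT with compound; 0.125 microM importin beta added, 45 min RT, CFP/YFP FRET ratio read.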
GLA inh pH 4.5: alpha-galactosidase A (human) inhibition, pH 4.5; P06280; purified enzyme, 4-MU-alpha-Gal fluorescence, pH 4.5; activity change, negative = inhibition, % at 105 µM; 230,000 tested, under 10 active; inconclusive = small, poorly fitted or top-dose-only inhibition, or a rising curve; inactive = flat fitted curve, though single readings scatter; no compound was filed as active;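 also: 0% = full activity with enzyme and -100% = basal without enzyme; dose as in the result columns while the protocol names 77 µM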
Target sequence (P06280 whole entry, looked up): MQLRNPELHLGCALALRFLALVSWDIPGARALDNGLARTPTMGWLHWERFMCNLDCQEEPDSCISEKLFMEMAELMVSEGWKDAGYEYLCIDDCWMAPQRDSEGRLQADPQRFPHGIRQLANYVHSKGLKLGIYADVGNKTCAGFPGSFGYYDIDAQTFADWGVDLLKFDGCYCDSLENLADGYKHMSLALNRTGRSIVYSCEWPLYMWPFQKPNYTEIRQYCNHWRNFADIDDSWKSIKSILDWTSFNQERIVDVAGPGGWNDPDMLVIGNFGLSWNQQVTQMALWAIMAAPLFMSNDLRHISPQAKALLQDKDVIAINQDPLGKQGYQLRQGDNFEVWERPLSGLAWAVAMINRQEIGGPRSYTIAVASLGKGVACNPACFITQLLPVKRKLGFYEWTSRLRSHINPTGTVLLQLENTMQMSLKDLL
Rango release inh: prevents RanGTP from dissociating the Rango-importin beta complex | O95149+P62826 | Biochemical FRET Rango-importin beta, RanGTP-induced dissociation | Potency, µM (titrated, usually from 46.1 µM), for the others: at the top dose activity change, negative = inhibition | actives 0.071% (n = 340,000); active means falling FRET ratio curve, often poorly fitted, with flat reads before Ran was added; inconclusive means other falling curves, or compound fluorescence or quenching; inactive means flat or rising ratio curve;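 also: potency is read from the fitted curve at half-maximal effect; % of control where 0% means no effect; nearly all actives have a fitted effect of over 45% in size; -100% = wells without RanGTP and RCC1; the record marks most hits as doubtful in a second field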
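Two FRET readings bracket the reaction: one 5 min after compound meets Rango–importin beta, another 45 min after RanGTP-RCC1 (0.6 uM Ran, 0.2 uM RCC1, 2 mM GTP) is added. Only the second defines inhibition.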
Starred values were filed as active, the others as inactive; ? = inconclusive; . = not tested or not shown.

Start of the listing, in advance, 3 compounds:
SMILES	miR-21 FLuc	Rango complex inh	GLA inh pH 4.5	Rango release inh
CCNS(=O)(=O)c1ccc2c(c1)NCC2	-21%	1.7%	2	-3%
C=CCNCc1ccccc1[N+](=O)[O-]	.	7.7%	.	2%
CCOC(=O)c1sc(N(Cc2ccccc2)C(=O)CCl)nc1C	-29%	0.5%	.	14%

Main list (from the top)
SMILES	miR-21 FLuc	Rango complex inh	GLA inh pH 4.5	Rango release inh
CCNS(=O)(=O)c1ccc2c(c1)NCC2	-21%	1.7%	2	-3%
C=CCNCc1ccccc1[N+](=O)[O-]	.	7.7%	.	2%
CCOC(=O)c1sc(N(Cc2ccccc2)C(=O)CCl)nc1C	-29%	0.5%	.	14%
COc1cc(OC)c(/C=N/N2CCN(c3ccccc3OC)CC2)c(OC)c1	-28%	6.0%	.	3%
CC(Sc1cccc[n+]1[O-])c1ccccc1 (stereo not given)	-2%	1.1%	.	18%
CCOC(=O)N1CCN(CC(O)COc2ccc(C)cc2C(C)(C)C)CC1 (stereo not given)	10%	6.1%	-14	3%
N#Cc1ccc(C(=O)Nc2cc(S(=O)(=O)N3CCCC3)ccc2OCC(F)(F)F)cc1	-13%	1.8%	4	0%
O=C(COc1ccccc1)NCC(=O)NC1=NCCS1	0%	-0.5%	0	14%
COc1ccc(CCNC(=O)c2c(O)c3cccc4c3n(c2=O)CC4)cc1	-1%	2.2%	-8	-6%
CC(C)COc1ccc(C(=O)N/C(=C\c2cccc([N+](=O)[O-])c2)C(=O)OC(C)C)cc1	-7%	-4.3%	1	7%
O=C(Nc1ccccc1[N+](=O)[O-])c1cc(S(=O)(=O)N2CCOCC2)cs1	-31%	0.4%	.	-18%
CCc1c(C)sc(NC(=O)C2CCCO2)c1C#N (stereo not given)	-25%	-0.4%	7	-27%
N#Cc1cn(-c2cccc(C(F)(F)F)c2)c(=O)[nH]c1=O	-23%	2.5%	.	-10%
COC(=O)c1ccc(NC(=S)NCCc2ccccc2C)cc1	-15%	-2.4%	-4	1%
COc1cccc(N(CC(=O)NC2CCCC2)C(=O)CCC(=O)Nc2nccs2)c1	-1%	-0.2%	.	-17%
Cc1ccc(C)c(S(=O)(=O)c2c(N)n(/N=C/c3ccco3)c3nc4ccccc4nc23)c1	1%	?	-1	?
Cc1csc(Nc2ccccc2C(F)(F)F)n1	-14%	1.9%	0	5%
COc1ccccc1C(=O)NNS(=O)(=O)c1ccc(F)cc1	-2%	-0.3%	.	0%
Cc1ccc(/C=N/NC(=O)Cn2cnc3c2c(=O)n(C)c(=O)n3C)s1	0%	2.5%	-1	-3%
c1cc(-c2n[nH]c(-c3ccncc3)n2)ccn1	.	2.1%	.	-3%
O=C(NNC(=O)c1cccs1)c1ccccc1	-37%	-8.5%	1	15%
CC(C)(C)NC(=O)NC(=O)CSc1ncccn1	-4%	-4.5%	3	-12%
CC(C(=O)Nc1ccc([N+](=O)[O-])cc1Cl)N1CCN(S(=O)(=O)c2cccs2)CC1 (stereo not given)	.	0.6%	.	0%
COCCNC(=O)/C(C#N)=C/c1ccc(C)o1	-14%	0.0%	-3	13%
CN(C)S(=O)(=O)c1ccc(C(=O)NCC2(N3CCOCC3)CCCCC2)cc1	.	0.0%	.	8%
O=C(CCc1nnc2ccc(NCc3ccccc3Cl)nn12)NC1CCCCC1	-11%	-3.3%	.	-4%
CC1CCN(S(=O)(=O)c2ccc3c(c2)N(CC(=O)NCCCN2CCCC(C)C2)C(=O)CO3)CC1 (stereo not given)	0%	5.3%	.	-19%
COc1cc(NC(=O)c2cc(=O)[nH]c3ccc(S(=O)(=O)N4CCOCC4)cc23)cc(OC)c1	.	?	.	9%
O=C(NCCNC(=O)c1ccc(Br)o1)c1cccnc1	0%	-0.6%	.	-1%
CCOC(=O)c1c(NC(=O)CSc2nnc(-c3c[nH]c4ccccc34)n2CC)sc2c1CCCC2	-1%	-2.2%	0	-13%
CC(NC(=O)C1=CC=CN2CCS(=O)(=O)N=C12)c1ccc(Cl)cc1Cl (stereo not given)	.	-1.8%	.	-14%
CC(=O)Nc1ccc(NC(=O)C(C)OC(=O)c2cc(S(=O)(=O)N(C)C)ccc2N2CCCC2)cc1 (stereo not given)	.	?	.	0%
CCN1CCc2nc(NC(=O)C(c3ccccc3)c3ccccc3)sc2C1	-1%	?	-8	?
CCC(=O)N(Cc1cc2ccccc2[nH]c1=O)c1ccccc1OC	3%	0.2%	.	11%
CN(CC(=O)Nc1ccccc1Cl)C(=O)CSc1nnc(N)s1	.	-2.2%	.	-8%
O=C(O)CCc1nn2cnc3sc4c(c3c2nc1=O)CCCC4	-3%	2.4%	1	-17%
O=C(Nc1ccccc1)C1=C[C@H](c2ccc3c(c2)OCO3)C[C@H](OCc2ccc(CO)cc2)O1	-35%	-3.0%	-9	12%
NC(=S)Nc1ccc(F)c(F)c1F	4%	0.5%	6	-13%
N#C/C(=N\Nc1ccc([N+](=O)[O-])cc1)C(N)=S	10%	6.6%	-7	12%
COc1cc(/C=N/NC(=S)NC2CC3C=CC2C3)cc(OC)c1OC (stereo not given)	12%	-2.8%	-8	-8%
CC1=C(C(=O)N2CCOCC2)C(c2ccc(O)cc2)NC(=S)N1 (stereo not given)	4%	-0.2%	-4	-1%
O=C(NCC(c1ccco1)N1CCN(c2ccccc2F)CC1)c1cccs1 (stereo not given)	.	5.3%	.	-6%
CCSC1=NCN(CCCC(=O)O)CN1	-11%	?	5	-2%
Cc1cc(NC(=O)C2CC(c3c(F)cccc3Cl)=NO2)n(-c2ccccc2)n1 (stereo not given)	-5%	-0.6%	2	-13%
CC(OC(=O)c1ccccc1NCCO)C(=O)Nc1ccnn1C(C)C (stereo not given)	.	-1.2%	.	-23%

Just Rango complex inh and GLA inh pH 4.5 (two entries from above):
SMILES,Rango complex inh,GLA inh pH 4.5
CCSC1=NCN(CCCC(=O)O)CN1,?,5
Cc1cc(NC(=O)C2CC(c3c(F)cccc3Cl)=NO2)n(-c2ccccc2)n1 (stereo not given),-0.6%,2

Additional compounds follow:
SMILES	miR-21 FLuc	Rango complex inh	GLA inh pH 4.5	Rango release inh
O=C(c1ccc(Cl)cc1)N(Cc1cccs1)C1CCS(=O)(=O)C1 (stereo not given)	-6%	1.9%	1	11%
Cc1cc(C)c(NC(=O)CSc2nnc(CNC(=O)c3c(F)cccc3Cl)o2)c(C)c1	2%	-4.9%	.	18%
O=C1C2CCCCN2C(=O)N1CCCCN1CCN(c2cccc(Cl)c2)CC1 (stereo not given)	-1%	1.3%	.	1%
COc1cccc(NC(=O)CCc2nnc3ccc(N4CCN(c5cccc(OC)c5)CC4)nn23)c1	-5%	-0.5%	.	-10%
Cc1cc(-c2ccccc2)n[nH]1	-16%	2.2%	4	1%
N=C(N)c1ccc(Cl)cc1	1%	2.2%	6	3%
Cc1nn2c3c(cnc2c1-c1ccccc1)C(=O)CCC3	-8%	-0.4%	-1	-2%
O=S(=O)(c1ccc2ccccc2c1)N1CCN(Cc2ccccn2)CC1	-4%	1.9%	-9	?
CC1CCCC(C)N1CC(O)COCc1ccccc1F (stereo not given)	0%	?	.	24%
COc1ccc(NC(=O)C2CCCC2)cc1S(=O)(=O)N1CCOCC1	.	-0.6%	.	-6%
CCCNC(=S)N1CCC(c2nc3cc(C)c(C)cc3[nH]2)CC1	-21%	0.1%	8	1%
CCN(C1CCS(=O)(=O)C1)S(=O)(=O)c1cc(C)ccc1C (stereo not given)	.	4.7%	.	12%
COc1ccc(/C=C(\NC(=O)c2cccs2)C(=O)N2CCOCC2)cc1OC	-4%	0.9%	1	-9%
CCOC(=O)c1c(C)nc2c(c1C)c(=O)oc1ccccc12	-13%	0.6%	-3	1%
O=C(Cn1nnc(-c2ccccc2)n1)OCc1csc(-c2ccccc2)n1	-2%	-1.6%	8	20%
CC(Sc1ncnc2sc(-c3ccccc3)cc12)C(N)=O (stereo not given)	-3%	-3.2%	.	-4%
CC(=O)c1ccc(NC(=O)C2CCN(S(=O)(=O)c3cccs3)CC2)cc1	-52%	0.0%	-21	-7%
CN(C(=O)CN1C(=O)C2C3CC(C(Br)C3Br)C2C1=O)C1CCCCC1 (stereo not given)	-6%	-0.8%	.	3%
CCN(CC(=O)Nc1cc(Cl)cc(Cl)c1)CC(=O)NC1CCS(=O)(=O)C1 (stereo not given)	.	-1.1%	.	1%
Cc1ccc(NC(=O)COn2nnc3ccc(S(=O)(=O)N(C)C)cc32)cc1F	11%	2.8%	4	15%
CN(CC1COc2ccccc2O1)C(=S)Nc1ccccc1 (stereo not given)	.	4.3%	.	0%
CC(CCc1ccccc1)NC(=O)COC(=O)C1=COCCO1 (stereo not given)	-4%	4.4%	-3	18%
Cn1c(CBr)c(C(=O)c2ccc([N+](=O)[O-])cc2)c(=O)n(C)c1=O	0%	6.1%	-15	9%
CCOC(=O)Cc1c(Sc2ccccc2)c2ccccc2n1C	-2%	0.2%	5	-29%
COC(=O)c1ccc(/C=C/c2ccc3cccc(OC(C)=O)c3n2)cc1	-13%	-1.3%	2	6%
CCOc1ccc2c(c1)C(N(CCN1CCOCC1)C(=O)Nc1ccc(OC)cc1OC)CC(C)(C)O2 (stereo not given)	-1%	-0.4%	-6	9%
NS(=O)(=O)c1cc(C(=O)OC2CCOC2=O)ccc1Cl (stereo not given)	2%	0.2%	.	-12%
COC(=O)c1cn(C(=O)c2cccs2)c2ccccc12	-12%	5.0%	-7	-5%
Nc1c(C(=O)Nc2ccc(S(=O)(=O)N3CCCC3)cc2)sc2nc3cc4c(cc3cc12)CCC4	-57%	4.3%	-8	-8%
CC1CCCC(C)N1C(=O)COc1ccc(C(=O)N/N=C/c2ccc(C(=O)O)cc2)cc1 (stereo not given)	-6%	-4.5%	-2	5%

Reformatted bar-delimited: part of the list above
compound | miR-21 FLuc | Rango complex inh | GLA inh pH 4.5 | Rango release inh
CCOc1ccc2c(c1)C(N(CCN1CCOCC1)C(=O)Nc1ccc(OC)cc1OC)CC(C)(C)O2 (stereo not given) | -1% | -0.4% | -6 | 9%
COC(=O)c1ccc(/C=C/c2ccc3cccc(OC(C)=O)c3n2)cc1 | -13% | -1.3% | 2 | 6%
CC(Sc1ncnc2sc(-c3ccccc3)cc12)C(N)=O (stereo not given) | -3% | -3.2% | . | -4%

Next part
SMILES	miR-21 FLuc	Rango complex inh	GLA inh pH 4.5	Rango release inh
CNS(=O)(=O)c1ccc(NC(=O)C(CCSC)NC(N)=O)cc1 (stereo not given)	0%	-2.3%	0	-2%
CC1(C)COC(c2coc3ccccc3c2=O)OC1	-52%	4.4%	2	-6%
COc1ccc(C2CC(c3ccc(OC)cc3)n3nc(N)nc3N2)cc1 (stereo not given)	-14%	0.7%	6	-1%
Cc1cc(C)n(-c2ccc(NC(=O)C3CCN(Cc4ccccn4)CC3)cc2)n1	1%	0.5%	.	7%
CCC(C)C(NC(=O)c1ccc(Cl)cc1)C(=O)O (stereo not given)	-2%	3.0%	-3	4%
CCn1cc(C(=O)OC(C)C(=O)Nc2c(C)n(C)n(-c3ccccc3)c2=O)c(=O)c2ccc(C)nc21 (stereo not given)	-9%	-9.0%	-4	1%
COc1ccc(C)cc1S(=O)(=O)N1CCOCC1	1%	5.1%	6	1%
O=C(NCc1ccc(F)cc1)C1CCC(=O)N1C1CCCCC1 (stereo not given)	2%	0.6%	-21	6%
O=C1CC(c2ccccc2)CC(O)=C1C=NCCN1CCNCC1 (stereo not given)	1%	0.2%	2	-4%
COc1ccc(-c2ccc(SCC(=O)NCC3CCCO3)nn2)cc1OC (stereo not given)	-24%	-0.4%	14	-10%
Cc1ccc(S(=O)(=O)OCCC2=CC(=O)CCN2Cc2ccccc2)cc1	.	-3.7%	.	0%
CCCCSC1(SCCCC)N=C(N)C2(C#N)C(c3ccccc3)NC(C)=CC12C#N (stereo not given)	-6%	?	7	?
CC(=O)c1cccc(NC(=O)C2CCN(C(=O)c3cccs3)CC2)c1	-4%	4.2%	.	8%
CCCNC(=O)c1ccccc1NC(=O)Cc1ccc(OC)c(S(=O)(=O)N2CCOCC2)c1	.	-2.3%	.	-14%
CCOc1ccc(-n2nc(C(=O)NC3CCCCC3)c3ccccc3c2=O)cc1	-1%	-2.3%	.	-11%
CC(=O)c1ccc2c(c1)C1C=CCC1C(C(=O)O)N2 (stereo not given)	3%	?	0	8%

Only part of the results is shown, so the mix of outcomes need not match the whole.
